Assay outcomes as filed in PubChem.
VDR inh – inhibitors of human vitamin D receptor. VDR-SRC2-3 peptide fluorescence polarization, 2 h. Potency, µM, for the others: max response, negative = inhibition, usual class: inhibitors. 0.93% of 400,000 active. AID 504847; active means well fitted inhibition curve with a large enough effect; inconclusive means small, poorly fitted or top-dose-only effect, or another doubt; inactive means no such curve, though single readings can be large or run the other way; further: series mostly up to about 120 µM
Target sequence (P11473 whole entry, looked up): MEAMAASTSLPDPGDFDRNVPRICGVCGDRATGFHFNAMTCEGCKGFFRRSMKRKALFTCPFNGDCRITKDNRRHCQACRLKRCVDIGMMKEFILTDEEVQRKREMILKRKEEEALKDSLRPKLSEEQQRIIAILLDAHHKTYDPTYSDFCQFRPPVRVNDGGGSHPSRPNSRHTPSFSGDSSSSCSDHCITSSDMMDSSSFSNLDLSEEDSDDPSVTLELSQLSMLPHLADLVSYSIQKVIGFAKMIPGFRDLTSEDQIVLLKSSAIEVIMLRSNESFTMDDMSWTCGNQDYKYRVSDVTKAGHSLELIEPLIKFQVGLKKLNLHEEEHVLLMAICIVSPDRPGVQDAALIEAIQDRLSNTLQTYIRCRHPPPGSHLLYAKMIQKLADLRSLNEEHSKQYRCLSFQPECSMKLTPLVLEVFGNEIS
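Reagent solutions, kept cold and dark, are dispensed first; compounds are then pinned in at 23 nl, plates briefly spun, and incubated 2 h at ambient temperature. Inhibition of VDR–SRC2-3 peptide binding is read by fluorescence polarization.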
* marks the source's active call; other numbers are inactive results; ? = inconclusive; & = joins results of further samples. On the % scale 0 is the no-effect control and ±100 the full control effect; potency means the concentration at half of the fitted maximal effect. A portion of the library. The share of hits here may be higher or lower than overall.

SMILES	VDR inh
COc1cc(OC)cc(C(=O)N[C@H](C(=O)NC2CCCc3ccccc32)C(C)C)c1 (stereo not given in full)	-7.7%
Cc1[nH]c(=O)c(C(=O)c2cc(Cl)ccc2O)cc1C(=O)O	7.6%
COc1ccc(-n2c(C)cc(/C=C3/SC(=S)N(C)C3=O)c2C)cc1	-5.5%
CSC1=C(C#N)C(c2ccc(C)s2)CC(=O)N1 (stereo not given)	14.5%
CCc1nnc(NC(=O)c2ccc3ncsc3c2)s1	-16.0%
COc1ccc(-c2ccc(-c3nc4c(c(=O)[nH]c(=O)n4Cc4ccccc4)n3C)o2)c([N+](=O)[O-])c1	6.3%
CCCn1c(=O)c2ccccc2n2c(SCc3cc(=O)oc4ccc5ccccc5c34)nnc12	3.4%
O=C(/C=C/Sc1ccccc1)c1ccc(Cl)cc1	56.2µM*
CSc1ccc(CN(C)C(=O)COc2ccc(C(=O)c3ccccc3)cc2)cc1	-1.8%
Cc1ccc(CNS(=O)(=O)c2ccc3[nH]c4c(c3c2)CCCCC4)cc1	8.5%
COc1ccc(-c2nnc(SCC(=O)Nc3cccc(Cl)c3C)nc2-c2ccc(OC)cc2)cc1	5.5%
CSc1ncc(Cl)c(C(=O)Nc2cccc3ccccc23)n1	12.5%
CC(C)c1nc2oc3c(NCCO)ncnc3c2c2c1COC(C)(C)C2	-1.9%
COc1ccc(CN2C(=O)N(c3ccc(OC)cc3)C(=O)C2CC(=O)Nc2ccccc2)cc1 (stereo not given)	1.8%
Cc1cccc(C)c1NC(=O)CNC(=O)c1ccc(N2CCCC2=O)cc1	6.0%
CC(=O)c1c(C)n([O-])c2cc(C)ccc2[n+]1=O	17.1%
CC[C@H](/C=C/[C@@H](C)[C@H]1CC[C@H]2C3CC=C4C[C@@H](O)CC[C@]4(C)C3CC[C@]12C)C(C)C (stereo not given in full)	5.8%
CC1CCN(S(=O)(=O)c2ccc(C(=O)N3CCCC(C(F)(F)F)C3)cc2)CC1 (stereo not given)	7.0%
CCOc1ccc(-n2c(SCC(=O)NC(C)CC)nc3n[nH]c(C)c3c2=N)cc1 (stereo not given)	-6.2%
CCNC(=S)N(CCc1c(C)[nH]c2ccccc12)Cc1cccnc1	-12.0%
O=C(CN1CCN(C(=O)c2ccco2)CC1)Nc1cccc(S(=O)(=O)N2CCCC2)c1	-15.6%
COCCCNC(=O)c1ccc(C(=O)NCCCOC)cc1	-6.8%
COc1ccc(C2(C)CC(C)(C)Nc3ccccc32)cc1 (stereo not given)	-4.9%
O=C(NNC(=O)c1cccs1)c1ccc(Br)o1	-1.0%
O=C(COc1ccc(Cl)cc1Cl)Nc1nc2n(n1)C(c1ccccc1)CC(=O)N2 (stereo not given)	-3.8%

An excerpt from above in order of the VDR inh value, low to high:
structure,VDR inh
COc1cc(OC)cc(C(=O)N[C@H](C(=O)NC2CCCc3ccccc32)C(C)C)c1 (stereo not given in full),-7.7%
CCCn1c(=O)c2ccccc2n2c(SCc3cc(=O)oc4ccc5ccccc5c34)nnc12,3.4%
Cc1[nH]c(=O)c(C(=O)c2cc(Cl)ccc2O)cc1C(=O)O,7.6%

New compounds follow:
SMILES	VDR inh
Cc1cc(C)c(NC(=O)CN2C(=O)NC3(CCCCC3)C2=O)c(C)c1	1.8%
O=C(c1ccc2nc(Cc3cccc(Cl)c3)oc2c1)N1CCOCC1	-8.3%
O=S(=O)(c1ccccc1)N1c2cc(Cl)ccc2Oc2nc3ccccc3nc21	-21.3%
CC(=O)Cc1nsc(NC(=O)c2ccc(-c3cc(Cl)ccc3Cl)o2)n1	3.7%
Cc1ccc(S(=O)(=O)N(CC(=O)Nc2cccnc2)c2ccc(Br)cc2)cc1	-10.7%
Brc1ccc2ncnc(NCc3ccccc3)c2c1	-1.0%
Cc1ccc(-n2c(C)cc(-c3csc(N)n3)c2C)cc1	13.7%
CSCCC(NC(=O)COc1ccccc1)C(=O)N1CC(C)CC(C)C1 (stereo not given)	0.0%
COc1ccc(C2N3CC4(C)CN2CC(C)(C3)C4O)cc1OC (stereo not given)	-1.7%
CCOc1ccc(CCNC(=O)c2cc(-c3ccccc3)c(N3CCOCC3)s2)cc1	-24.7%
CCCNC(=O)C(Cc1ccccc1C)NC(=O)c1ccc(C#N)cc1 (stereo not given)	8.4%
CC(C)COP(=O)(c1ccc(N(C)C)cc1)C(O)c1ccc(N(C)C)cc1 (stereo not given)	-8.9%
CC(C)C(=O)Nc1ccc(C(=O)NNC(=S)NC(=O)c2cccs2)cc1	-2.9%
COC(=O)c1cn(NC(=O)C2CCC(C)CC2)c(=O)c2ccccc12 (stereo not given)	-2.0%
O=c1cc(CSc2n[nH]c(-c3ccccc3)n2)[nH]c2ccccc12	9.6%
O=C1CCNCCN1[C@H](CO)Cc1ccccc1	10.3%
Cc1cccc(OCCn2c(CCNC(=O)C3CCCCC3)nc3ccccc32)c1	-6.6%
O=C(c1cccc(F)c1)N1CCC[C@@]2(CCN(c3cccc(-c4ccccc4)c3)C2)C1	44.7µM*
COc1cc(C(=O)OCC(C)=O)ccc1OCc1c(C)noc1C	-14.5%
CCN(C(=O)COC(=O)CNS(=O)(=O)c1ccc(SC)c([N+](=O)[O-])c1)C1CCCCC1	-16.6%
Cc1cccc(NC(=O)C2CCN(S(=O)(=O)c3cccc4nsnc34)CC2)n1	8.0%
CC(=O)Oc1c(C(C)C)cc(N(C(C)=O)c2ccccc2)cc1C(C)C	2.8%
Cc1cccc(C(=O)NCC(=O)OCC(=O)N(C)CC(=O)Nc2ccc(F)cc2)c1	12.3%
CCCNC(=O)[C@H](C)NC(=O)c1ccc(Br)cc1	-2.5%
COC(=O)c1ccc(NC(=O)CCCN2C(=O)NC(C)(C)C2=O)cc1	9.5%

The list goes on (five carried over from the part before).
SMILES	VDR inh
Cc1cccc(NC(=O)C2CCN(S(=O)(=O)c3cccc4nsnc34)CC2)n1	8.0%
CC(=O)Oc1c(C(C)C)cc(N(C(C)=O)c2ccccc2)cc1C(C)C	2.8%
Cc1cccc(C(=O)NCC(=O)OCC(=O)N(C)CC(=O)Nc2ccc(F)cc2)c1	12.3%
CCCNC(=O)[C@H](C)NC(=O)c1ccc(Br)cc1	-2.5%
COC(=O)c1ccc(NC(=O)CCCN2C(=O)NC(C)(C)C2=O)cc1	9.5%
Cc1cc(C)cc(NC(=O)c2cc(C)n(Cc3cccs3)c2C)c1	-5.2%
CCc1nc2sc(C(C)=O)c(N)c2c2c1CCCC2	-13.1%
CC(=O)c1ccc(OCCOc2ccc(Cl)c3cccnc23)cc1	-1.0%
Clc1ccccc1-c1nccc(NCc2cccs2)n1	?
CN(C)S(=O)(=O)c1cccc(NC(=O)CN2C(=O)NC3(CCc4ccccc4C3)C2=O)c1 (stereo not given)	20.3%
Cc1ccc(C)c(OCc2cc(C(=O)N(C)Cc3ccccn3)no2)c1	-17.8%
CCOC(=O)c1ccc(COC(=O)CNC(=O)CNC(=O)Cc2ccccc2)cc1	-15.5%
Cc1ccc(-n2ncc3c(=O)n(-c4ccc(C)c(C)c4)c(-c4ccco4)nc32)cc1	-1.3%
COc1ccccc1NC(=O)N(Cc1nnc2n1CCCCC2)c1ccc(F)cc1	6.1%
Cc1cc(NS(=O)(=O)c2ccc(NC(=O)c3cccnc3)cc2)nc(C)n1	-13.5%
COC(=O)C1C2C=CC(C3CC23)C1C(=O)OCC(=O)c1ccc(OC)cc1 (stereo not given)	-3.0%
C=C[C@@H]1c2cc(C)ccc2N(S(=O)(=O)c2ccc(C)cc2)[C@H](c2ccccc2)C1(C#N)C#N	-4.1%
CCN(CC(=O)NC1CCS(=O)(=O)C1)S(=O)(=O)c1ccccc1 (stereo not given)	-16.4%
COc1ccc(NC(=O)c2ccc3c(=O)n4nc(Nc5ccccc5C)sc4nc3c2)cc1Cl	4.1%
Cc1cc(=O)oc2cc(OCC3CC(c4ccccc4)=NO3)ccc12 (stereo not given)	-8.5%
COc1ccc2nc(Cl)cc(Cl)c2c1	-7.5%
COCCCNc1oc(-c2ccccc2Cl)nc1C#N	3.7%
Cc1c(C(=O)OCC(=O)N2c3ccccc3CC2C)oc2ccccc12 (stereo not given)	5.0%
C=C(C)CSc1nnc2n(N)c(=O)c3ccccc3n12	-11.3%
CCOc1ccc(CN(C)C(=O)c2ccc3ccccc3n2)cc1	-1.8%
C[C@@]12C(=O)N(c3ccccc3)C(=O)N1[C@@H]1c3ccccc3OC[C@@H]1[C@H]2c1ccccc1	-7.1%
O=C(O)C(Nc1nc(C(F)(F)F)nc2ccccc12)c1ccccc1 (stereo not given)	1.5%
COc1cccc(CNC(=O)CN(C)S(=O)(=O)c2ccc3c(c2)c(=O)n(C)c(=O)n3C)c1	-7.7%&-5.0%
CCOc1ccc(S(=O)(=O)NCCC(=O)NCC(c2ccc(OC)cc2)N2CCCC2)cc1 (stereo not given)	-9.0%
O=C(CCn1c(=O)sc2ccccc21)NCCCn1ccnc1	6.3%
SMILES	VDR inh
CCCNc1c(NS(=O)(=O)c2cccs2)c(=O)oc2ccccc12	-9.9%
Clc1ccc(CSC2=NCCCN2)cc1Cl	-8.0%
CC(=O)C1CCC2C3CC(C)C4(O)CC(=O)CCC4(C)C3C(O)CC12C (stereo not given)	3.2%
CC(C)(C)c1ccc(C(=O)N2CCC(C(=O)NCCC3=CCCCC3)CC2)cc1	19.6%
Cc1cc(C(=O)OCC(=O)N(CC(C)C)c2c(N)n(Cc3ccccc3)c(=O)[nH]c2=O)c(C)o1	1.8%
COc1ccc(CCC(=O)NCc2ccc3c(c2)CCN3C(=O)c2ccc(C)cc2)cc1	15.6%
O=C(COC(=O)c1ccc(F)cc1)NCc1ccc(F)cc1	6.2%
CCc1ccc(NS(=O)(=O)c2cc3c(cc2C)n(C)c(=O)c(=O)n3C)cc1	-16.0%
CCc1ccc(CNC(=O)c2ccc(-c3nc(CS(=O)(=O)c4ccccc4)c(C)o3)cc2)cc1	8.4%
CCOCc1nnc(NC(=O)c2ccco2)s1	7.6%
CCCCCOC(=O)NCCOC(=O)Nc1ccc(C(=O)OCC)cc1	9.5%
O=C(CCc1ccccc1)NNC(=O)c1ccco1	11.7%
Cc1nn(Cc2noc(C(=O)NCC3CCCO3)n2)c(C)c1Br (stereo not given)	-11.7%
CCN1CCN(c2cc(C)c3cc(NC(=O)c4ccc5c(c4)OCO5)ccc3n2)CC1	4.4%
CCOc1ccc(S(=O)(=O)Nc2ccn(C)n2)cc1	0.3%
CN(C)c1ccc(-c2nnn(CC(=O)NCc3ccc4c(c3)OCO4)n2)cc1	4.4%
COc1ccccc1CNc1cc(-c2ccccc2)nc2nncn12	-6.2%
CCc1ccc(S(=O)(=O)c2cn(CC(=O)Nc3ccc(F)c(Cl)c3)c3ccccc3c2=O)cc1	-13.7%
CC(C)Oc1ccc(C(CC(=O)O)NC(=O)CSc2ncn[nH]2)cc1 (stereo not given)	5.5%
CC(C)(C)c1ccc(-c2nnc(SCC(=O)O)n2N)cc1	0.0%
CC(Sc1nc(N)cc(N)n1)C(=O)NCC1CCCO1 (stereo not given)	-0.4%
O=C(CCc1ccccc1)Nc1ccc(NS(=O)(=O)c2ccccc2)cc1	13.3%
COCCCNC(=O)CN(c1cc(Cl)ccc1OC)S(C)(=O)=O	-17.9%
CCOC(=O)c1c(C)n(C)c2ccc(O)c(CN3CCCCC3)c12	5.5%
CNC(=O)CC1C(=O)N(C)C(=S)N1NC(=O)c1ccccc1 (stereo not given)	?
SMILES	VDR inh
COc1ccccc1Nc1sc(C(=O)c2ccc(F)cc2)c(N)c1S(=O)(=O)c1ccc(C)cc1	11.3%
O=C(Nc1ccc2c(c1)OCO2)Nc1ccccn1	6.7%
Cc1ccc(Sc2c(C)nn(C(C)(C)C)c2OC(=O)C(C)(C)C)cc1	-14.5%
O=C(NNC(=O)C1CCC1)c1cccc(Cl)c1	-4.3%
O=C(N/N=C/c1ccc(O)cc1)c1cc(-c2ccccc2)nc2ccccc12	14.4%
CC(=O)c1ccc(OCC(=O)NC2CCS(=O)(=O)C2)cc1 (stereo not given)	0.6%
COc1ccc(NC(=O)CCCN(C)S(=O)(=O)c2ccc(C)cc2)cc1	-16.6%
CCc1ccc(CNC(=O)Cn2ccc3cc(S(=O)(=O)N4CCCCCC4)ccc32)cc1	8.9%
CC1CCCN(C(=O)C2c3ccccc3C(=O)N3CCc4ccccc4C23)C1 (stereo not given)	-19.5%
COc1ccc(S(=O)(=O)N(CC(=O)NCc2ccccn2)c2ccc(Cl)cc2)cc1	27.5%
Cc1cccc(N2CCN(c3ccc(NC(=O)c4ccccc4)cc3C(=O)O)CC2C)c1 (stereo not given)	-5.5%
O=C(NC1CCCC1)c1ccc(CS(=O)(=O)Cc2ccccc2F)o1	-16.6%
COc1ccc(NC(=O)C(c2cc3c(cc2[N+](=O)[O-])OCO3)N(C)C)cc1 (stereo not given)	-8.7%
C=CCn1c(SCC(=O)NC(=O)NCc2ccco2)nc2sc(C)c(C)c2c1=O	14.9%
Cc1ccc(-c2noc(CCC(=O)N3CCCC3)n2)cc1	16.7%
COc1ccccc1NC(=O)CC(=O)CSc1nnc(-c2ccc(C)cc2)n1-c1ccccc1	-0.5%
CCc1nnc(SCC(=O)N(CC)c2ccccc2)c2cc3oc(C)cc3n12	1.7%
CC(C)(C)C(=O)N(Cc1nc2ccccc2c(=O)[nH]1)Cc1cccs1	5.4%
CC(C)C[C@H](NC(=O)[C@@H]1Cc2c([nH]c3ccccc23)C2c3ccccc3C(=O)N21)C(=O)NCC1CCCO1 (stereo not given in full)	5.1%
COc1ccccc1-n1cnc2cc(C(=O)NC3CCCC3)ccc21	8.4%
Cc1ccc(/C=N/NC(=O)CCCOc2ccc(Cl)cc2Cl)cc1[N+](=O)[O-]	5.4%

Some of these compounds in order of formula weight, high to low:
SMILES	VDR inh
CCOc1ccc(-n2c(SCC(=O)NC(C)CC)nc3n[nH]c(C)c3c2=N)cc1 (stereo not given)	-6.2%
CCN(CC(=O)NC1CCS(=O)(=O)C1)S(=O)(=O)c1ccccc1 (stereo not given)	-16.4%
O=c1cc(CSc2n[nH]c(-c3ccccc3)n2)[nH]c2ccccc12	9.6%
